AID504770: growth inhibitors of E. coli YBA685 in a screen for V. cholerae RctB (chromosome II replication) inhibitors; AID 504770; E. coli YBA685 rctB-dependent plasmid, OD600 growth, 3 h; active compounds read low; 0.27% of 130,000 active; z-score (concentration not given with the values);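 active = z-score under -2 on both plates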;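 note: wells of about 30 µL received 100 nL stock; score is relative to mean and SD of the test wells; the first replicate is given; strong numbers were not always called active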
Ba CapD inh: CapD enzyme inhibition; purified CapD enzyme, fluorescence intensity read-out; active compounds read low; some hits fall short of the stated cut; z-score (no concentration beside the values); 0.23% of 140,000 active;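 active = z-score under -4 in either of two replicates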;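 note: stock transfer was 100 nL into about 40 µL; score is relative to mean and spread of the plate; one replicate is shown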
* hit, by the source's call; . = not tested or not shown. Random draw from the library; about 0.37% have a hit in one of these screens.

Order of values – AID504770 | Ba CapD inh
COc1ccc(N2CCN(CC(O)COC3C4(C)CCC(C4)C3(C)C)CC2)cc1 (stereo not drawn)
    -0.35 | 0.205
Cc1ccc(-c2ccc(CCC(=O)O)n2NC(=O)c2ccco2)cc1
    0.65 | 0.205
CCC(Sc1nc2ccccc2s1)C(=O)Nc1cc(C)on1 (stereo not drawn)
    0.2 | .
NC(=O)CSc1nc2c(c(=O)n1CCc1ccccc1)C1(CCCCC1)Cc1ccccc1-2
    . | 3.36
c1cc(CN2CCOCC2)ccc1CN1CCOCC1
    0.15 | 0.67
N#Cc1ccccc1S(=O)(=O)N1CCN(C(=O)CCc2cccs2)CC1
    1.4 | .
CC(=O)Nc1cc2c(cc1[N+](=O)[O-])OCCOCCOCCOCCO2
    . | 0.405
OC1(c2ccc(Cl)cc2)CCNCC1
    . | -0.635
CCOC(=O)C1=C(C)Nc2ccccc2N=C1NC(=O)C1CCN(S(=O)(=O)c2ccccc2)CC1
    1.15 | .
CCOC(=O)c1cc2c(=O)n3ccccc3nc2n(Cc2ccco2)c1=NC(C)=O
    . | 1.73
O=C(CSc1cn(CC(=O)N2CCOCC2)c2ccccc12)N1CCOCC1
    -1.25 | 0.485
Cc1onc(-c2ccccc2)c1C(=O)N1CCSC1=NCc1ccccc1
    -0.45 | .
O=C(Nc1cccnc1)c1nn2c(C(F)(F)F)cc(-c3ccc(F)cc3)nc2c1Cl
    . | -0.185
CC(C)Oc1ccc(CN2CCN(CCOC(=O)NCc3ccc4c(c3)CCO4)CC2)cc1
    . | -0.8
N#CCC1c2ccccc2CCN1C(=O)Nc1ccc(C(F)(F)F)cc1 (stereo not drawn)
    . | -0.24
CCOC(=O)N1CCC(N2C(=O)c3ccccc3C2=O)CC1
    -0.55 | -0.065
COc1ccccc1/C=[N+]1\N=C([O-])C(NC(=O)c2cccc(C)c2)C1c1ccc(Cl)cc1 (stereo not drawn)
    -0.15 | 1.93
Cc1ccc(NC(=S)N2CCn3c4c(c(=O)c5cc(C)ccc53)CCC42)cc1 (stereo not drawn)
    -0.25 | 0.585
NC(=S)c1ccccn1
    -1.05 | .
CN1C2CCC1CC(OC(c1ccccc1)c1ccccc1)C2 (stereo not drawn)
    0.15 | -0.375

Reprinted from the part before: 4 compounds, followed by the next part.
Order of values – AID504770 | Ba CapD inh
COc1ccccc1/C=[N+]1\N=C([O-])C(NC(=O)c2cccc(C)c2)C1c1ccc(Cl)cc1 (stereo not drawn)
    -0.15 | 1.93
Cc1ccc(NC(=S)N2CCn3c4c(c(=O)c5cc(C)ccc53)CCC42)cc1 (stereo not drawn)
    -0.25 | 0.585
NC(=S)c1ccccn1
    -1.05 | .
CN1C2CCC1CC(OC(c1ccccc1)c1ccccc1)C2 (stereo not drawn)
    0.15 | -0.375
c1ccc(-c2cc(N3CCCC3)n3cnnc3n2)cc1
    0.15 | 19.3
O=S(=O)(c1ccc(-c2cc(C(F)(F)F)no2)s1)N(CCN1CCOCC1)Cc1ccco1
    0.2 | 0.295
O=C(CSCc1ccccc1)Nc1ccccc1C(=O)NCc1ccccc1
    -0.25 | 0.78
O=C(O)c1ccc(-c2ccc(/C=N/N3C(=O)C4C(C3=O)C3C=CC4C34CC4)o2)cc1 (stereo not drawn)
    -0.05 | .
COc1cccc(CN2CCCCC2C(=O)O)c1 (stereo not drawn)
    -0.5 | .
CCOC(=O)N1CCN(C(=O)c2cc3cccnc3n(Cc3ccccc3)c2=O)CC1
    0.05 | .
COc1ccc(C2Nc3ccccc3C(=O)N2Cc2ccccc2)cc1CSc1ccccn1 (stereo not drawn)
    . | 57.4
CCN(c1ccc(F)cc1)S(=O)(=O)c1cccc2nsnc12
    . | -0.255
CC(C)NS(=O)(=O)Cc1ccccc1C#N
    -0.6 | .
CNc1c(NS(=O)(=O)c2cccc(C#N)c2)c(=O)oc2ccccc12
    -1 | 1.42
CC1(C)COC(c2cccn2Cc2ccccc2)=N1
    -0.75 | -0.845
Cc1coc2cc3oc(=O)c(CC(=O)N4CCCC4)c(C)c3cc12
    1.2 | 5.25
O=C1CC2c3ccccc3C1C1C(=O)N(Cc3cccnc3)C(=O)C21 (stereo not drawn)
    . | 6.12
FC(F)(F)c1cc(C(F)(F)F)c2ccc(Oc3ccc(Cl)cc3)nc2n1
    . | -0.18
CC1(C)CC(=O)C(N=Nc2ccc(SC(F)F)cc2)=C(O)C1
    -0.15 | .
COCC(C)NC(=O)c1cc2c(C)cc(C)cc2[nH]1 (stereo not drawn)
    0.2 | 4.66
CN1C(=O)N(C)C(NC(=O)NC(C)(C)C)C1NC(=O)NC(C)(C)C (stereo not drawn)
    . | 0.015
CC(C1CC1)n1nccc1NC(=O)c1cccc(S(C)(=O)=O)c1 (stereo not drawn)
    -0.75 | .
CC(=O)c1sc(-c2ccccc2)nc1C
    . | -0.835
NC(=O)c1ccsc1NC(=O)C1COc2ccccc2O1 (stereo not drawn)
    -0.6 | 0.175

Seven entries from above, as tab-separated lines:
smiles	AID504770	Ba CapD inh
CCOC(=O)C1=C(C)Nc2ccccc2N=C1NC(=O)C1CCN(S(=O)(=O)c2ccccc2)CC1	1.15	.
CCOC(=O)c1cc2c(=O)n3ccccc3nc2n(Cc2ccco2)c1=NC(C)=O	.	1.73
O=C(CSc1cn(CC(=O)N2CCOCC2)c2ccccc12)N1CCOCC1	-1.25	0.485
Cc1onc(-c2ccccc2)c1C(=O)N1CCSC1=NCc1ccccc1	-0.45	.
O=C(Nc1cccnc1)c1nn2c(C(F)(F)F)cc(-c3ccc(F)cc3)nc2c1Cl	.	-0.185
CC(C)Oc1ccc(CN2CCN(CCOC(=O)NCc3ccc4c(c3)CCO4)CC2)cc1	.	-0.8
N#CCC1c2ccccc2CCN1C(=O)Nc1ccc(C(F)(F)F)cc1 (stereo not drawn)	.	-0.24

Next compounds follow.
Order of values – AID504770 | Ba CapD inh
O=S(=O)(c1ccccc1F)N1CCSCC1
    . | -0.795
CCN(CC)C(=O)COc1ccc2ccccc2c1Br
    1.4 | -0.015
CC(C)(CC(=O)O)CC(=O)Nc1cc(C(F)(F)F)cc(C(F)(F)F)c1
    . | -0.285
C/C(=N\O)c1ccc(C#Cc2ccccc2)s1
    -0.9 | 3.33
Cc1cc(Cl)cc(Cl)c1CN(C)C(=O)c1cnc(Oc2ccccc2)cc1C(F)(F)F
    -0.95 | -0.475
COc1ccc(NC(=O)Cn2c(-c3ccccc3)cn(-c3ccc(C)cc3)c2=O)cc1
    0.65 | -0.13
O=C(CCN1CCCCC1)Nc1ccc(F)c(Cl)c1
    0.7 | 0.39
CCOC(=O)c1ccc(N=C2SC(C(=O)Nc3ccc(C)cc3C)CC(=O)N2C)cc1 (stereo not drawn)
    . | -0.1
O=C(Cn1nc2c3c(cccc3c1=O)-c1ccccc1-2)c1ccccc1
    -0.95 | 3
O=C(CCC1CCCCC1)Nc1ccc(O)cc1
    -1.4 | -0.47
COCCOC(=O)c1sc(C)c(C(=O)OC)c1N
    0.6 | .
O=C(Nc1ccc2c(c1)OCCO2)C1Cc2ccccc2N1C(=O)OCc1ccccc1 (stereo not drawn)
    1.6 | -0.75
O=C(COC(=O)C1CCC1)Nc1ccc(F)cc1
    0.5 | -0.205
CCCC(CCC)(C(=O)O)C(=O)O
    -1 | -0.495
O=C(O)CNC(=O)OCC1c2ccccc2-c2ccccc21
    -0.6 | -0.21
O=C(Cc1ccc2ccccc2c1)NNC(=O)c1ccc2nsnc2c1
    . | -0.715
CCCC(=O)c1cn(CC(=O)OC)c2ccccc12
    0.65 | -0.085
N#CC12CC3CC(CC(C3)C1)C2
    0.1 | .
COc1ccc(-n2nc3ccc(N)cc3n2)cc1
    0.05 | 61.1
CCOC(=O)c1sc2sc(C(C)=O)c(C)c2c1C
    . | -0.46
CCOC(=O)C1=C(C)NC2=C(C(=O)C(C(=O)OCC)C(c3cccc(OC)c3)C2)C1c1ccc([N+](=O)[O-])cc1 (stereo not drawn)
    . | -0.515
Cc1nn(-c2ccccc2)c(C)c1/C=C/C(=O)OC(C)C(N)=O (stereo not drawn)
    0.15 | .
Nc1c(S(=O)(=O)c2ccccc2)c2nc3ccccc3nc2n1Cc1ccc(S(N)(=O)=O)cc1
    -0.8 | .
COC(=O)/C(C#N)=C1/CCSC1
    0.1 | 0.15
CCOC(=O)c1c(C=O)oc2c(C)cc(OC(=O)C34CC5CC(CC(C5)C3)C4)c(Br)c12
    . | 0.37
CC(=O)CC(C)=Nc1ccc(C(F)(F)F)cc1
    . | -0.46
Cc1cc(C)n2nc(C(=O)N(C/C=C/c3ccccc3)c3ccc4c(c3)OCCO4)nc2n1
    0.35 | .
O=C(CSc1nnc(-c2ccc(Cl)s2)o1)N1CCCc2ccccc21
    2.7 | 1.36
CC(=O)Oc1cccc2ccc(=O)[nH]c12
    0.75 | 13
CCOc1ccc(C2Nn3c(nnc3-c3ccccc3)SC2C(=O)N2C(C)CCCC2C)cc1 (stereo not drawn)
    -0.65 | 0.165
NS(=O)(=O)c1ccc(NC(=O)C2CCCO2)cc1 (stereo not drawn)
    -0.25 | .
O=C(NCCc1ccsc1)c1cnn2ccccc12
    -1.35 | -0.06
O=C(O)CCC(=O)N1c2ccccc2NC2=C(C(=O)CC(c3ccc(F)cc3)C2)C1c1cccs1 (stereo not drawn)
    . | 3.71
CC1=C(c2ccc(C)cc2)S(=O)(=O)NC1=NC1CCCC(C)C1C (stereo not drawn)
    -0.75 | -0.665
Cc1ccccc1-n1nc2c(c1NC(=O)c1c(-c3ccccc3Cl)noc1C)CS(=O)(=O)C2
    . | -0.16
Fc1ccc(CN2CCCN(Cc3ccc(F)cc3)C2c2ccco2)cc1
    -0.65 | -0.27
Cn1c(=O)[nH]c(=O)c2c1nc(NCc1ccccc1)n2CC(O)COc1cccc2ccccc12 (stereo not drawn)
    . | 0.395
CCCCN1C(=O)/C(=C2\SC(=Nc3ccc(Cl)cc3)N(C)C2=O)c2ccccc21
    -1.2 | -0.205
O=C(NCCCN1CCCCC1)C1CC(=O)N(C2CCCCC2)C1 (stereo not drawn)
    -0.65 | -0.78
O=C(Cn1cncn1)NCCc1ccccc1
    -0.3 | -0.32
Cc1cc(NC(=O)CCN2C(=O)/C(=C/c3ccc(Cl)cc3)SC2=S)no1
    . | -0.22
O=C1CC(c2ccc(Br)cc2)C2=C(CCCC2=O)N1 (stereo not drawn)
    1.05 | -0.21
CN(C)c1nc(-c2ccccc2)c(CC(=O)O)s1
    0 | .
CC(=O)Nc1ccc(S(=O)(=O)NCc2ccc(Cl)cc2Cl)cc1
    . | 0.025
N#CCC(=O)c1ccc(N)cc1
    -0.65 | -1.42
Cc1nn(C2CCS(=O)(=O)C2)c(Cl)c1CNCC(=O)Nc1ccc(F)c(F)c1 (stereo not drawn)
    -0.15 | .
Oc1ccc(Cl)cc1C1=NNC(c2ccc(Br)cc2)C1 (stereo not drawn)
    . | 0.16
CC(C)CC(NC(=O)Nc1cccc2ccccc12)C(=O)O (stereo not drawn)
    1.4 | 7.76
CS(=O)(=O)c1ccc(S(=O)(=O)N2CCN(C3c4ccccc4-c4ccccc43)CC2)cc1
    . | 0.32
CCn1nc(C)c(NC(=S)NCC2CCCO2)c1C (stereo not drawn)
    -0.75 | 0.095
CCOc1ccc(NC(=O)N(Cc2ccc(C)cc2)Cc2ccccn2)cc1
    -0.45 | 0.51
Cc1cc(C)nc(N2CC(=O)N=C2N)n1
    0.15 | 0.415
N#C/C(=C\Nc1ccc(C(N)=O)cc1)c1nc(-c2cccc(Br)c2)cs1
    3.2 | -0.145
O=C(c1ccc(CS(=O)c2ccc(Cl)cc2)o1)N1CCCC1 (stereo not drawn)
    -0.1 | -0.5
Cc1[nH]c(=O)[nH]c(=O)c1/C=C/C(=O)O
    -1.4 | -0.205
CCCNC(=O)c1ccc(CS(=O)(=O)c2ccccc2C)o1
    0.8 | 0.15
CCc1ccc(C2C(C#N)=C(N)OC(C)=C2C(=O)OC)cc1 (stereo not drawn)
    -0.4 | .
COCn1ccnc1P(=O)(O)c1ccccc1
    -0.05 | -0.275
CN1C2CCC1CC(NC(=O)c1cccc(C(F)(F)F)c1)C2 (stereo not drawn)
    0.7 | -0.07
O=S(=O)(Nc1ccc(S(=O)(=O)Nc2ncccn2)cc1)c1ccccc1
    -0.55 | .
